# PrP UTR inh – suppresses PrP 5' UTR mRNA reporter expression; cell-based PrP 5' UTR mRNA reporter, plate reader; inhibition, % (concentration not given with the values); 340,000 compounds, 0.35% hits; AID 488862;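 active = every replicate at 50% or more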;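 note: 0 = median of the neutral control wells; tested in H4 reporter cells; numbers are from one replicate; inactives centre near -14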
# Mtb hypoxia inh – inhibitors of hypoxia-regulated fluorescent reporter in Mycobacterium tuberculosis | M. tuberculosis hypoxia-regulated fluorescent reporter, fluorescence | fluorescence inhibition, % (concentration not given with the values) | 300,000 compounds, 0.1% hits;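 active = 35 to 45% if threefold the growth effect, above 45% if 1.5-fold the growth effect; inactive = the rest, general growth blockers included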;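 note: wells of about 50 µL received 100 nL stock; 0% = vehicle wells and 100% = reference inhibitor wells; whole bacteria with a GFP reporter of the hypoxia response; strong numbers were not always called active; many hits fall short of the cut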
# ugtP null kill – growth inhibition of S. aureus ugtP deletion strain; S. aureus RN4220 ugtP deletion, OD600 growth, 16 h; some inactives read as strong as hits; growth inhibition, % (no concentration beside the values); 330,000 compounds, 0.54% hits; AID 1259309;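 active = z-score under -3 and OD600 up to 0.15 on both plates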;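 note: plate controls were untreated wells for no effect and antibiotic for full effect; wells of about 80 µL received 100 nL stock; the first replicate is given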
# BJeLR viability – kills HRASV12-expressing BJeLR cells; 300,000 compounds, 0.17% hits; AID 1554; inhibition, % (test concentration not listed); BJeLR (HRASV12) viability, CellTiter-Glo ATP luminescence, 48 h; reference of the scale not given here;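 active = replicate mean above 50%; inconclusive = above 50% but judged a plate artefact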;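 note: 50 nL library stock added to about 25 µL; numbers are from one replicate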
# Bead autofluor – flagged as autofluorescent in microsphere protease counterscreen | compound autofluorescence counterscreen, microsphere flow cytometry; stronger effect = higher value | fluorescence intensity (no concentration beside the values) | AID 624483 | 360,000 compounds, 3.1% hits;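 active = at least 3 SD above the mean of all compounds, about 16000 in these data; inconclusive = too few beads counted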;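 note: 100 nL of 1 mM stock went into each well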
# Sa RN4220 lethal – S. aureus RN4220 growth inhibition; 330,000 compounds, 0.33% hits; OD600, 16 h; inhibition, % (concentration not given with the values);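 active = z-score of -3 or lower and OD600 up to 0.18 on both plates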;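 note: plate controls were untreated cells for no effect and reference antibiotic for full effect; stock transfer was 100 nL into about 80 µL; one replicate is shown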
# Mtb hypoxia inh growth – recorded beside Mtb hypoxia inh, whose call it bears; growth inhibition, %; measured here: M. tuberculosis growth (absorbance);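 0% = vehicle and 100% = reference antibiotic; read after six days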
# * = called active by the depositor; ? = inconclusive; . = not tested or not shown.
SMILES,PrP UTR inh,Mtb hypoxia inh,Mtb hypoxia inh growth,ugtP null kill,BJeLR viability,Bead autofluor,Sa RN4220 lethal
O=C(NC(=S)Nc1ccc2oc(=O)ccc2c1)c1cc2ccccc2o1,-12,0,-6,-14,-2,3577,4.9
CC(=O)Nc1cc2c(cc1NC(=O)Cn1nc(-c3ccccc3)ccc1=O)OCCO2,-17,-7,8,2,-5,3877,1.1
CCOC(=O)Cn1nc(CC)c2ccccc2c1=O,-22,4,-4,11,3,9570,2.7
CCOc1ccc(C2CC(c3cccc(OC)c3)n3nc(N)nc3N2)cc1 (stereo not given),-8,.,.,5,-2,4565,3.1
COc1ccc(OCC(=O)NNc2c3ccccc3nc3ccccc23)cc1,-12,-1,2,-26,-2,16716*,6.2
CN(C(=O)Oc1cccc2ccccc12)C1C=CCC1 (stereo not given),-17,6,6,17,.,3672,7.1
N#CC1=C(O)CCCn2c1nc1ccccc1c2=O,-28,-1,4,1,-7,9173,3.5
Clc1ccccc1OCCCCN1CCCC1,1,-5,-2,4,-2,20741*,-0.7
O=C(Nc1nnc(S(=O)(=O)N2CCCC2)s1)c1ccccc1F,-5,7,1,8,8,5847,1.6
O=C(Cn1c2[n+](c3ccc(C(F)(F)F)cc31)CCCCC2)Nc1c(F)cccc1F,-16,3,10,6,6,4140,1.2
O=C(O)/C(=C\c1ccc(Cl)c([N+](=O)[O-])c1)c1ccc(S(=O)(=O)N2CCCC2)s1,-1,4,1,2,.,8485,-1.9
Cc1ccc(CN2CCN(Cc3c(C)nn(C(C)C)c3C)CC2CCO)o1 (stereo not given),-24,8,2,2,2,2565,2.3
Fc1ccc(Cn2ccc(-c3cnc(-c4ccccc4)s3)n2)cc1,-27,.,.,21,3,2875,-12
CCOC(=O)C1CCN(Cc2ccccc2C)CC1,-16,-1,8,1,0,9590,0.1
O=C(NN=Cc1cccnc1)c1ccccc1OCc1ccc(Br)cc1,.,19,22,11,.,.,8.9

# Retrieved by structure from the entries so far:
SMILES,PrP UTR inh,Mtb hypoxia inh,Mtb hypoxia inh growth,ugtP null kill,BJeLR viability,Bead autofluor,Sa RN4220 lethal
CN(C(=O)Oc1cccc2ccccc12)C1C=CCC1 (stereo not given),-17,6,6,17,.,3672,7.1
O=C(NC(=S)Nc1ccc2oc(=O)ccc2c1)c1cc2ccccc2o1,-12,0,-6,-14,-2,3577,4.9
CCOc1ccc(C2CC(c3cccc(OC)c3)n3nc(N)nc3N2)cc1 (stereo not given),-8,.,.,5,-2,4565,3.1
CC(=O)Nc1cc2c(cc1NC(=O)Cn1nc(-c3ccccc3)ccc1=O)OCCO2,-17,-7,8,2,-5,3877,1.1
O=C(Nc1nnc(S(=O)(=O)N2CCCC2)s1)c1ccccc1F,-5,7,1,8,8,5847,1.6

# The list continues.
SMILES,PrP UTR inh,Mtb hypoxia inh,Mtb hypoxia inh growth,ugtP null kill,BJeLR viability,Bead autofluor,Sa RN4220 lethal
CCN1CCN(c2c(S(=O)(=O)c3ccc(C)c(C)c3)cnc3ccc(F)cc23)CC1,-22,-3,7,6,13,5901,18
Cc1ccnc(NC2CCCCC2)c1,-45,-5,1,10,0,3212,4.1
O=C(NCCNC(=O)c1ccccc1O)c1ccccc1O,-2,-11,2,-2,-1,3680,3.8
Cc1cc(C(=O)NCC(=O)Nc2ccc(F)c(F)c2)c(C)o1,-18,15,13,-5,.,3763,1.8
Cc1nc2ccccn2c1C(=O)N/N=C/c1ccccc1[N+](=O)[O-],-16,.,.,.,3,8979,.
O=C(CSc1ccc(-c2ccccn2)nn1)Nc1ccc(F)c(F)c1,-152,15,13,8,1,?,0.5
O=C1c2ccccc2C(=CC#Cc2ccccn2)N1c1ccccc1,.,6,10,33,.,.,-4.0
COc1cc(NC(=O)c2cccnc2Sc2ccc(C)c(C)c2)cc(OC)c1OC,8,-5,10,0,-7,2045,2.9
NC(Cc1ccc2nonc2c1)C(=O)O (stereo not given),-19,4,3,-4,1,2443,-16
CC(C)CC(=O)N1CCC(O)(CS(=O)(=O)c2ccc(Cl)c(Cl)c2)CC1,-24,14,10,2,5,4841,-1.4
Cc1cccc(OCc2ccc(C(=O)Nc3cc(C)on3)o2)c1,-16,-4,6,-1,1,3069,4.4
COc1ccc(C(C)C)cc1S(=O)(=O)N1CCN(c2ccccc2)CC1,-22,-5,0,2,-9,4357,1.5
CN(C(=O)CCc1nnc(Cc2ccc(-c3ccccc3)cc2)o1)C1CCOCC1,-20,7,8,20,3,4530,3.4
CCCCNC(=O)Cn1nc(-c2ccc(C)cc2)ccc1=O,-13,4,-3,3,8,3927,-0.9
CCN(CCCNC(=O)c1[nH]c(C)c(C(C)=O)c1C)c1ccccc1,-10,-8,2,4,-1,4755,5.5
c1ccc(SCc2nc3ccccc3[nH]2)nc1,-27,.,.,8,-2,2725,0.8
COC(=O)CNC(=O)C1Cc2ccccc2CN1S(=O)(=O)c1cccs1 (stereo not given),-12,6,7,6,-6,5837,1.9
Cc1cccc2[nH]c(CCNC(=O)C3CCC(=O)N(CCc4cccc(F)c4)C3)nc12 (stereo not given),-6,2,-4,11,3,4736,2.6
COCCNC(=O)COc1cc(=O)n(C)c2ccccc12,-20,6,3,0,13,16570*,2.5
NS(=O)(=O)c1ccc(CCNC(=O)CCCn2c(SCC(=O)N3CCCC3)nc3ccsc3c2=O)cc1,-5,12,5,8,4,4464,2.4
Cc1ccc(S(=O)(=O)N/N=C(\c2ccccc2)c2cccnc2)cc1,-18,.,.,.,7,4944,.
O=C(Nc1ccccc1)C1=C[C@H](C2CCCCC2)C[C@H](OCc2ccc(CO)cc2)O1,0,.,.,.,0,3717,.
Cc1ccc2nc(N3CCN(C)CC3)[nH]c2c1,-31,7,-1,6,-23,3661,6.1
CCCC(=O)NCCSC,-20,.,.,0,8,4252,-10
COc1cccc(CNC(=O)CCCNS(=O)(=O)c2cccs2)c1,-13,.,.,2,-7,2074,4.5
O=C(COC(=O)/C=C/c1ccc(Br)o1)Nc1cccc(S(=O)(=O)N2CCOCC2)c1,-11,13,8,3,.,3328,6.0
Cc1ccc2nc(NCCc3ccc(Cl)cc3)c3nncn3c2c1,-6,-1,-1,-20,-3,3244,-4.9
O=C(NCCc1ccccc1)/C(=C\c1cccc([N+](=O)[O-])c1)NC(=O)c1ccco1,-23,0,0,5,2,5986,2.5
Cc1ccccc1NC(=O)c1c(Cl)nc(C)c(Cl)c1C,-28,6,14,0,0,7807,14
CCC(NC(=O)CNC(=O)c1ccc2c(c1)OCO2)c1ccc(Br)cc1 (stereo not given),-6,2,1,3,.,6216,-2.9
CCN1CCN(S(=O)(=O)c2ccc(Oc3ccccc3OC)cc2)CC1,19,9,0,17,.,3312,8.3
CCNS(=O)(=O)c1ccc(NC(=O)Nc2cccc(OC)c2)cc1,-13,1,8,1,5,3133,2.6
COc1cccc(NC(=O)NCc2ccccc2Cl)c1,-25,8,7,4,-7,4521,1.1
Cc1ncc(CO)c(C=NNC(=O)c2ccoc2C)c1O,.,-5,-1,1,.,.,0.8
CCOc1ccc(NC(=O)C2=NN(c3ccccc3)C(=O)CC2)cc1S(=O)(=O)N1CCCCC1,-16,-3,0,2,.,4180,9.9
O=C(Nc1ccc(O)cc1)c1cc2n(n1)C(C(F)(F)F)CC(c1ccco1)N2 (stereo not given),0,8,13,7,-8,3130,0.1
Cc1ccccc1CNc1ccc(C(CC(N)=O)NC(=O)c2ccc(Br)cc2)cc1[N+](=O)[O-] (stereo not given),-20,.,.,.,2,4182,.
CC(CCN1CCN(c2ccc(F)cc2)CC1)c1ccccc1 (stereo not given),-24,3,8,13,-1,3879,-0.9
O=C(NC(=S)N1CCCCC1)c1csc([N+](=O)[O-])c1,-20,.,.,9,5,3128,19
Cc1nccc(-c2ccc(-n3c(C)ccc3C)cc2)n1,-35,0,8,1,-6,6073,4.6
COC(=O)Cc1c(C)c2ccc(OC(=O)c3ccco3)cc2oc1=O,-15,6,10,8,-15,3265,5.6
O=C(CCCOc1ccc(Cl)cc1Cl)Nc1ccncc1,-15,3,-6,-7,20,9357,0.5
Cc1ccc(C(=O)Nc2sc3c(c2C#N)CCCCC3)cc1C,-101,12,9,-6,5,4249,1.2
O=C(NCCC1=CCCCC1)c1ccc(Br)o1,-41,.,.,3,-6,9642,7.2
Cc1cc(C)nc(N2CCCC(C(=O)NC3CCCC3)C2)n1 (stereo not given),.,-5,13,-3,-4,8326,-3.4
CCOC(=O)c1c(C)[nH]c(NC(=O)N2CCOCC2)c1C,-32,13,2,-1,11,12613,1.6
COc1ccc(/C=C2\SC(N)=NC2=O)cc1Br,-13,1,0,-8,-9,3593,0.6
Cc1ccc2nc(C(Cl)(Cl)Cl)nc(N/N=C/c3ccncc3)c2c1,2,.,.,.,-14,3626,.
CCOC(=O)c1ccc(N2Cc3ccccc3C2=NC(=O)c2cccc([N+](=O)[O-])c2)cc1,-100,10,6,18,-9,3768,10
O=C(CNC(=O)c1ccco1)N/N=C/c1c[nH]c2ccccc12,-16,.,.,.,-2,3296,.
O=C(Nc1cccc(-c2ccc(N3CCOCC3)nn2)c1)c1ccccc1,-73,3,4,5,-7,14924,-0.2
Cc1ccc(/C=C/C(=O)O)cc1S(=O)(=O)Nc1ccc(C(=O)O)cc1,-16,11,9,5,-8,5326,3.0
CC(=O)OCC1(C)CN(c2ccccc2)N(C(=O)c2ccc(F)cc2)C1=O (stereo not given),-3,9,10,-5,-4,2403,5.2
COc1ccc(-c2[nH]n(-c3ccc([N+](=O)[O-])cc3)c(=O)c2C=NCc2ccncc2)cc1,-5,-6,1,-20,.,2186,-3.3
O=S(=O)(NCCCCNS(=O)(=O)c1ccc(F)cc1)c1ccc(F)cc1,-5,7,3,0,-2,3381,4.9
O=C(CN(Cc1ccco1)C(=O)CNS(=O)(=O)c1ccc(Cl)cc1)NCC1CCCO1 (stereo not given),3,-4,5,17,1,3320,3.7
CCNS(=O)(=O)c1ccc(CCC(=O)N2CCN(c3ccc(OC)cc3)CC2)cc1,-15,11,8,10,0,3331,3.7
Cc1ccccc1C(=O)NNc1ncnc2c1cnn2C,-3,-8,8,-1,-8,4170,-2.7
Cc1ccc(NC(=O)CSc2nc(N)cc(=O)[nH]2)cc1S(=O)(=O)N1CCCCCC1,6,12,7,10,.,2852,4.4
CN(C)c1c(N)[nH]c2c(c1=O)c(=O)n(C)c(=O)n2C,-12,7,4,-5,1,11039,4.5

# Further results follow.
SMILES,PrP UTR inh,Mtb hypoxia inh,Mtb hypoxia inh growth,ugtP null kill,BJeLR viability,Bead autofluor,Sa RN4220 lethal
Cc1ccc(S(=O)(=O)NCCCCCC(N)=O)cc1,-16,11,7,1,3,?,2.1
Cn1ncc(N=Cc2ccccc2[N+](=O)[O-])c1C(N)=O,-20,15,6,10,5,5561,3.1
CNC(=O)C1CC(=O)N(CCc2ccccc2)C(=Nc2ccc(OC)cc2)S1 (stereo not given),-15,1,-1,-2,10,3995,3.8
Cc1cc(OCc2nc(-c3ccc(NC(=O)c4cccnc4)cc3)no2)ccc1Cl,.,-1,3,-11,13,11871,4.8
Clc1cc(Cl)c2nc(N3CCCC3)sc2c1,-82,8,8,1,-4,4208,16
CC1Cn2c(nc3c2c(=O)[nH]c(=O)n3C)O1 (stereo not given),-13,-3,6,6,12,3183,10
O=C(CN1N=C(c2ccccc2)CCC1=O)NCc1ccco1,.,11,4,1,1,.,6.3
CCOc1cc(CNc2nn[nH]n2)ccc1OCC(=O)NC(C)(C)C,-23,-2,8,-62,-1,3220,7.7
Cc1nc2nc[nH]n2c(=O)c1CCC(C)C,-20,3,2,6,-6,6621,3.1
CC1=CCC(C(=O)O)(C(=O)NN=Cc2cccs2)C(c2ccc(Cl)cc2)C1 (stereo not given),.,-2,8,-15,.,.,4.5
COc1ccc(CCn2c(O)c(C=NCCCn3ccnc3)c(=O)[nH]c2=O)cc1OC,-26,2,9,7,3,22690*,3.3
CCOc1ccc(-c2c(=O)n(OCc3ccccc3Br)c3ccccc3[n+]2[O-])c(OCC)c1,-26,-1,3,2,4,4167,-0.9
COC(=O)c1nn(-c2ccccc2)c(=O)cc1Oc1ccccc1,-14,8,-3,-3,17,22483*,1.6
CCOC(=O)c1cc(S(=O)(=O)N2CCN(c3ccccc3OC)CC2)cn1C,-22,2,-3,3,4,5433,3.2
O=C1NC(NS(=O)(=O)c2ccccc2)(C(F)(F)F)C(=O)N1Cc1ccccc1 (stereo not given),-10,2,8,2,10,6036,2.8
O=C(CSc1ccccn1)NN=Cc1c[nH]c2ccccc12,.,4,0,1,.,.,5.7

# Source: PubChem
